# High-throughput results: PubChem, ICCB-Longwood Screening Facility, Harvard Medical School
# S aureus helic: S. aureus DNA helicase inhibition. inhibition, %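 (tested at about 80 µM)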. purified S. aureus helicase, fluorescence unwinding assay; about half of the hits fall short of the stated cut. hit rate 0.05% among 120,000;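 active means both duplicates at 50% or more, or one of them with a favoured structure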;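 further: 0% = mean of negative control wells and 100% = mean of positive control wells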
# MgrA-DNA mod: alters Staphylococcus aureus MgrA binding to DNA. fluorescence polarization. inhibition, %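 (about 10 µg/mL by stock and volumes)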. hit rate 0.13% among 84,000. AID 602314;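 active means above 50% in either of two replicates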;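 further: 0% = protein plus DNA without compound and 100% = DNA alone without protein; higher means less MgrA bound to DNA so lower polarization; one replicate is shown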
# * = called active by the depositor; . = no result given. Only part of the results is shown; rates above refer to the full screens.
SMILES,S aureus helic,MgrA-DNA mod
CC(CC(=O)NCc1cccnc1)c1ccccc1 (configuration not stated),8,-2.3
CCCN1C/C(=C/c2ccsc2)C(=O)/C(=C/c2ccsc2)C1,10,-12
O=C1OC(Nc2ccccc2)c2ccccc21 (configuration not stated),-21,.
COc1ccc(-n2nc(C(=O)NCC(=O)Nc3ccc4c(c3)OCCO4)c3ccccc3c2=O)cc1Cl,-4,.
CC(C)(C)c1ccc(-c2nc3scc(-c4cccs4)c3c(=O)o2)cc1,.,0.7
CCc1cccc2c(=O)c(C(=O)N3CCCC3)c[nH]c12,-1,-1.0
CC(Sc1ccc(Cl)cc1)C(=O)NN=C1CCN(C)CC1 (configuration not stated),-16,.
Cc1nn(Cc2ccc(C(=O)Nc3cc(Cl)cc(Cl)c3)o2)c(C)c1Br,-10,.
C[C@@]12CCC(=O)[C@]1(C)CCC2=O,-13,.
Cn1cccc1C=NN1CCN(Cc2ccccc2)CC1,4,0.3
NC(=O)COC(=O)c1ccc(S(=O)(=O)Nc2ccccc2)cc1,-10,.
O=C(NCCc1ccccc1)c1cccc(N2C(=O)C3CC=CCC3C2=O)c1 (configuration not stated),6,3.2
O=C(Nc1ccc(Br)c(Cl)c1)C1CC1,-14,0.5
Clc1ccc(-c2csc(-c3ccno3)n2)cc1,.,0.1
COc1ccc(N(Cc2coc(-c3ccccc3)n2)S(=O)(=O)c2ccccc2)cc1,-5,.
Cc1ccccc1N=C1Nc2ccc3ccccc3c2C1=O,-16,11
CN(C)C(CNC(=O)c1cncc(Br)c1)c1cccs1 (configuration not stated),3,.
Cc1ccc2nc3n(c(=O)c2c1)CCCc1nn(-c2nc4ccccc4s2)c(N)c1-3,2,.
COc1ccc(-c2cc(C(F)(F)F)n3ncc(C(=O)NC(C)(C)C)c3n2)cc1,2,3.6
CC(C)C(NS(=O)(=O)c1ccc2c(c1)OCCO2)C(=O)OCN1C(=O)c2ccccc2C1=O (configuration not stated),6,.
OC1(C(F)(F)F)CC(c2ccc(F)cc2)=NO1 (configuration not stated),-1,1.4
CCn1nnc2c(Nc3cccc(C)c3)ncnc21,0,.
CCn1c(C)cc(O)c(C(c2cccc(OC)c2)N2CCN(c3ccccn3)CC2)c1=O (configuration not stated),6,.
CC(C)Cc1nnc(NS(=O)(=O)c2ccccc2)s1,14,.
CC(C)(C)c1ccc(-c2nn3cnnc3s2)cc1,-16,.
CCCCn1c(CNC(=O)c2ccc(OC)cc2)nnc1SC,-13,.
Cc1ccc[n+](Cc2cnc(C)nc2N)c1,4,-4.2
Cc1sc2ncnc(NCc3ccc4c(c3)OCO4)c2c1C,-9,.
CCOC(=O)C1=C(C)OC(N)=C(C#N)C1c1ccc2c(c1)CCO2 (configuration not stated),.,3.1
COc1ccc(C(=O)COC(=O)c2cccc(S(N)(=O)=O)c2)cc1,0,.
Cc1cccc(OCC(=O)NC(Cc2c[nH]c3ccccc23)C(=O)O)c1 (configuration not stated),14,23
Cc1sc(NC(=O)c2ccco2)c(C(c2cccnc2)N2CCCCC2)c1C (configuration not stated),-22,.
CCN1CCN(C(=O)C2CCCN(c3nn4cc(-c5ccc(OC)cc5)nc4s3)C2)CC1 (configuration not stated),3,0.5
Cc1ccc(CNc2nc3ccccc3s2)s1,4,-0.1
CCN(CC)C(=O)CSc1nc2cccnc2n1C,4,-0.6
O=C(O)C1CCCN(Cc2ccco2)C1 (configuration not stated),17,-4.2
CC1CCCC(NC(=O)COC(=O)c2cccc(Br)c2)C1C (configuration not stated),9,0.0
Cc1cc(C(=O)COC(=O)[C@@H]2CCCN2C(=O)c2cccs2)c(C)n1-c1ccc2c(c1)OCCO2,1,.
O=C(c1ccco1)N1CC2(c3ccccc3)CN(C(=O)c3ccco3)CC(c3ccccc3)(C1)C2=O,16,.
COc1cc(OCc2ccccc2)ccc1CN1CCN(c2ccc(C(F)(F)F)cn2)CC1,.,0.5
COc1ccc(NC(=O)c2nn3c(c2Br)NC(c2cccs2)CC3C(F)(F)F)c(OC)c1 (configuration not stated),.,0.0
NC(=O)CC1SC(N)=NC1=O (configuration not stated),-3,0.1
N/C(=N/O)c1ccccc1,-11,-2.5
CCCNc1ccc(F)cc1,8,.
COc1ccccc1NC(=O)C1CCN(c2nn3cc(-c4ccc(C)cc4)nc3s2)CC1,-6,0.6
CC(C)(C)NC(=O)Nc1cc(C(F)(F)F)cc(C(F)(F)F)c1,.,-0.4
Fc1ccc(CSc2nc3ccccc3o2)cc1,-1,-0.1
COc1cc(OC)cc(-c2nc3ccccc3c(=O)n2NC(=O)/C=C/c2ccc(Br)cc2)c1,.,0.9
Cc1cccc(-c2nc3ccccc3c(=O)o2)c1,-20,.
COc1ccc(/C=C2\SC(=S)N(/N=C/c3ccc(OC)cc3)C2=O)cc1,5,-0.3
O=C(CSCc1ccc(Cl)c(Cl)c1)Nc1c[nH]c(=O)[nH]c1=O,5,-0.7
N#Cc1cc2c(=O)n3ccccc3nc2n(-c2nccs2)c1=O,-11,.
CC(=O)Oc1cc(C)ccc1C(C)C,13,.
CCOc1ccccc1C1C(C(=O)OC)=CN(CC23CC4CC(CC(C4)C2)C3)C=C1C(=O)OC,-11,0.1
NNc1nnc(Cl)c2ccccc12,-13,.
O=C(c1ccco1)N1CCN(CC(O)COC(c2ccc(Cl)cc2)c2ccc(Cl)cc2)CC1 (configuration not stated),-2,.
COc1cccc(S(=O)(=O)N2CCCC2)c1,13,.
CSc1nc(N)nc(-c2cccs2)c1C#N,-10,.
Cc1nn(-c2ccccc2)c2c1C(c1ccccc1)C(NC(=O)c1ccccc1)C(=O)N2 (configuration not stated),3,.
O=C1CS/C(=N/c2nc(-c3ccccc3)cs2)N1,9,0.7
# The list goes on.
SMILES,S aureus helic,MgrA-DNA mod
Cc1ccn(C(=O)c2ccc(NC(=O)C3CCCCC3)cc2)n1,7,-1.3
CC1(C)CCC(C(C)(C)O)CC1,.,-3.0
CCC(c1nnnn1CCOC)N(Cc1cc2ccc(OC)cc2[nH]c1=O)C1CCCC1 (configuration not stated),0,0.2
CC(C)(C)c1nc(NCc2cccs2)c2nnn(Cc3ccccc3Cl)c2n1,10,-2.1
CN(CC(=O)Nc1nccs1)S(=O)(=O)c1ccc2c(c1)CCC(=O)N2,10,.
COc1ccc(C2CC(c3ccc(Br)cc3)=NN2C(=O)CSc2nnc3[nH]c(=O)cc(C)n23)cc1 (configuration not stated),5,.
O=C(CSc1ncnc2sc3c(c12)CCCC3)OC1CCCCC1,-5,-3.0
COCCN1C2=C(C(=O)CC(C)(C)C2)C(c2cc(Br)c(O)c(OC)c2)C2=C1CC(C)(C)CC2=O,22,.
O=C1CCCN2N=C(SCc3ccc(C(F)(F)F)cc3)SC2=N1,0,2.1
COc1ccc(C2C(C#N)=C(O)NC(=O)C2[n+]2ccccc2)cc1OC (configuration not stated),-15,1.9
O=C(c1ccccc1Oc1ccccc1)N1CCN(c2ccccc2)CC1,0,.
COc1ccc(C(C)=O)cc1CS/C(=N\S(=O)(=O)c1ccccc1)Nc1cccc(Cl)c1Cl,.,-1.4
COc1ccc2c(c1)c(=O)oc1cc(OC(C)C(=O)O)ccc12 (configuration not stated),12,-2.1
COC(=O)c1ccc(COc2ccc(-c3nnn(CC(=O)NC(C)(C)C)n3)cc2)cc1,10,.
CCOc1cc(=O)oc2ccc(Cl)cc12,8,-1.0
NC(=O)CC1Nc2ccccc2NC1=O (configuration not stated),17,.
Cc1ccccc1NC(=O)c1sc(N)c(C(N)=O)c1C,20,19
CCOC(=O)Cc1cc(=O)[nH]c(/N=C(\N)Nc2ccc3ccccc3c2)n1,3,16
O=C(O)c1cc2c(cc1NC(=O)C13CC4CC(CC(C4)C1)C3)OCCCO2,-5,.
NS(=O)(=O)c1ccc(N2C(=O)C3C4C=CC(C4)C3C2=O)cc1 (configuration not stated),-27,.
Cc1cc(NC(=O)c2cccs2)n(-c2ccccc2)n1,-16,1.2
S=c1[nH]nc(-c2sc3ccccc3c2Cl)n1CCN1CCOCC1,-11,.
CN1CCN(C(=O)c2ccccc2C(=O)O)CC1,-6,3.8
O=C(c1ccc(Cl)cc1)n1nc(-c2cccnc2)nc1NCc1ccco1,-13,.
O=C(N1CCN(Cc2ccc3c(c2)OCO3)CC1)N1c2ccccc2Sc2ccccc21,31,.
O=C(OCCOc1ccc(Cl)cc1)c1ccc(O)cc1O,2,.
CCCCSc1ncnc2sccc12,6,.
CC(C)NC(=O)c1ccc(N2CCCC2=O)cc1,11,0.0
Cc1ccccc1-c1nnn(CC(=O)N2c3ccccc3NC(=O)C2(C)C)n1,-3,.
COc1ccc(OC)c(Nc2nc3nonc3nc2Nc2cc(OC)ccc2OC)c1,.,4.0
Cc1cc(=O)[nH]c(SCc2nc(-c3cccs3)no2)n1,-25,.
COc1cccc(/C=N/n2c(-c3ccco3)nc3ccccc3c2=O)c1,20,-1.0
CC(=O)NCc1ccc(C(=O)Cn2nc(C(=O)O)c3ccccc3c2=O)o1,9,.
CCOC(=O)c1cnc2ccccc2c1NCCCO,-11,1.6
Cn1cc(C2CC(=O)N(c3ccc(O)cc3)C2=O)c2ccccc21 (configuration not stated),3,-0.2
CC(C)(C)OC(=O)NC1CCN(C(=O)c2cccs2)CC1,.,1.1
CCCN(CCC)C(=O)Cn1c(=O)n(CCC(=O)NCCc2ccccc2)c(=O)c2ccccc21,-27,.
O=C(O)CNC(=O)c1sc2ccccc2c1Cl,10,-4.3
O=C(COc1cccc(Br)c1)NCC1CCCO1 (configuration not stated),-18,-1.3
CCOC(=O)c1cc(C#N)c(Sc2nnc(SC)s2)nc1C(F)(F)F,.,2.7
CCN(CC)S(=O)(=O)c1ccc2c(c1)nc(CCC(=O)Oc1ccc3c(c1)OCO3)n2CC,6,.
COc1ccc(NC(=O)n2ncc3c(C)cccc32)cc1,13,.
O=C(NCc1ccncc1)C1CC(=O)N(c2ccc(Cl)cc2)C1 (configuration not stated),4,-1.2
S=c1sc2c(s1)SC1C(CC3C4C=CC(C4)C31)S2 (configuration not stated),5,6.6
CC1CC(C)CN(C(=O)c2cc3ccc4cccnc4c3[nH]2)C1 (configuration not stated),-13,.
CCC(C)OC(=O)COc1ccc2c(=O)c(Oc3cc(C)ccc3C)coc2c1 (configuration not stated),9,-0.7
COc1cc(/C=C2/SC(=S)N(c3cccc(C(F)(F)F)c3)C2=O)ccc1OCC(=O)O,.,1.1
CN(Cc1csc(Nc2ccccc2)n1)Cc1cccs1,5,.
CCOC(=O)c1ccoc1CN1c2cccc3cccc(c23)S1(=O)=O,0,.
NC(=O)Cn1cnc2sc3c(c2c1=O)CCCC3,-1,0.5
O=C(O)CCC(=O)Nc1ccccc1Oc1ccccc1,.,-1.8
C[C@H](NC(=O)c1ccco1)C(=O)Nc1cccc(-c2nnc3n2CCCCC3)c1,0,.
COc1ccc(CCn2c(C)cc(C(=O)CSc3nnc(-c4cccnc4)n3C3CC3)c2C)cc1,-9,.
CC1=CC=CC2C(=O)/C(=C\c3sc(=S)[nH]c3O)C(=NCCCn3ccnc3)N=C12 (configuration not stated),-93,.
Cc1ccc2c(c1)c1c(n2CC(O)Cn2ccnc2C)C(=O)CCC1 (configuration not stated),14,.
COC(=O)c1scc(C)c1-n1c(C)ccc1C,.,-0.1
CCCCn1nnnc1COC(=O)c1ccc(OCC(=O)N2CCOCC2)c(OC)c1,0,.
CC1CCc2c(sc(NC(=O)c3cc(-c4ccc5c(c4)OCO5)on3)c2C(N)=O)C1 (configuration not stated),-15,.
O=C(COc1ccc(Cl)cc1)NCc1ccc2[nH]c3c(c2c1)CCCC3,10,0.1
Cc1noc(C)c1CSc1nc2ccccc2c(=O)n1CC1CCCO1 (configuration not stated),-11,.

# 17 compounds from above, sorted by SMILES length, ascending:
SMILES,S aureus helic,MgrA-DNA mod
O=C(COc1cccc(Br)c1)NCC1CCCO1 (configuration not stated),-18,-1.3
COC(=O)c1scc(C)c1-n1c(C)ccc1C,.,-0.1
NC(=O)Cn1cnc2sc3c(c2c1=O)CCCC3,-1,0.5
CN(Cc1csc(Nc2ccccc2)n1)Cc1cccs1,5,.
COc1ccc(NC(=O)n2ncc3c(C)cccc32)cc1,13,.
S=c1sc2c(s1)SC1C(CC3C4C=CC(C4)C31)S2 (configuration not stated),5,6.6
Cc1noc(C)c1CSc1nc2ccccc2c(=O)n1CC1CCCO1 (configuration not stated),-11,.
O=C(NCc1ccncc1)C1CC(=O)N(c2ccc(Cl)cc2)C1 (configuration not stated),4,-1.2
CC1CC(C)CN(C(=O)c2cc3ccc4cccnc4c3[nH]2)C1 (configuration not stated),-13,.
Cc1ccc2c(c1)c1c(n2CC(O)Cn2ccnc2C)C(=O)CCC1 (configuration not stated),14,.
CCOC(=O)c1cc(C#N)c(Sc2nnc(SC)s2)nc1C(F)(F)F,.,2.7
O=C(COc1ccc(Cl)cc1)NCc1ccc2[nH]c3c(c2c1)CCCC3,10,0.1
CCC(C)OC(=O)COc1ccc2c(=O)c(Oc3cc(C)ccc3C)coc2c1 (configuration not stated),9,-0.7
C[C@H](NC(=O)c1ccco1)C(=O)Nc1cccc(-c2nnc3n2CCCCC3)c1,0,.
CC1CCc2c(sc(NC(=O)c3cc(-c4ccc5c(c4)OCO5)on3)c2C(N)=O)C1 (configuration not stated),-15,.
COc1cc(/C=C2/SC(=S)N(c3cccc(C(F)(F)F)c3)C2=O)ccc1OCC(=O)O,.,1.1
CCN(CC)S(=O)(=O)c1ccc2c(c1)nc(CCC(=O)Oc1ccc3c(c1)OCO3)n2CC,6,.

# (further entries)
SMILES,S aureus helic,MgrA-DNA mod
Cc1cccc(-n2cnc3cc(C(=O)N4CCCCC4)ccc32)c1,14,.
O=C(Cn1ncc2c([nH]c3ccccc32)c1=O)Nc1ccc(Cl)cn1,-46,.
N#CC1=C(N)Oc2c(sc3ccccc23)C1c1ccccc1 (configuration not stated),-20,-2.5
CS(=O)(=O)CS(=O)(=O)NCc1cccs1,.,1.6
O=C(CC1CCCC1)OCCN1CCCC1=O,-14,1.5
N#Cc1ccc(NC(=O)CC2(CC(=O)O)CCCCC2)cc1,-6,.
